Compound activity: PubChem BioAssay, National Center for Advancing Translational Sciences (NCATS)
Rango release inh = qHTS Assay for Inhibitors of RanGTP induced Rango (Ran-regulated importin-beta cargo) - Importin beta complex dissociation | Snurportin-1 (Homo sapiens) + GTP-binding nuclear protein Ran (Homo sapiens) + Importin … | Biochemical FRET Rango-importin beta, RanGTP-induced dissociation | Potency, µM (highest dose often 46.1 µM), inactives show top-dose activity change, negative = inhibition | 340,000 tested, 0.071% active | AID 540253, 2011; active means falling FRET ratio curve, often poorly fitted, with flat reads before Ran was added; inconclusive means other falling curves, or compound fluorescence or quenching; inactive means flat or rising ratio curve;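 also: potency is read from the fitted curve at half-maximal effect; % of control where 0% means no effect; nearly all actives have a fitted effect of over 45% in size; -100% = wells without RanGTP and RCC1; the record marks most hits as doubtful in a second field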
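Compounds preincubate 5 min with complex of recombinant Rango and importin beta in PBS with 1 mM DTT. Ran (0.6 uM) loaded with 2 mM GTP plus 0.2 uM RCC1 starts dissociation; FRET is recorded 45 min later.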
GLA inh pH 4.5 = qHTS Assay for Inhibitors of Human alpha-Galactosidase at pH 4.5; purified enzyme, 4-MU-alpha-Gal fluorescence, pH 4.5; Alpha-galactosidase A (Homo sapiens), P06280; activity change, negative = inhibition, % at 105 µM; AID 1467, 2008; 230,000 tested, under 10 active; inconclusive = small, poorly fitted or top-dose-only inhibition, or a rising curve; inactive = flat fitted curve, though single readings scatter; no compound was filed as active;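 also: 0% = full activity with enzyme and -100% = basal without enzyme; dose as in the result columns while the protocol names 77 µM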
Rango complex inh = qHTS Assay for Inhibitors of Rango (Ran-regulated importin-beta cargo) - Importin beta complex formation. Importin subunit beta-1 (Homo sapiens), Q14974. Rango CFP/YFP FRET sensor + importin beta, 45 min. Potency, µM (titrated, usually from 92.2 µM), for inactives: at the top dose inhibition of complex formation. 340,000 tested, 0.031% active; active = rising FRET ratio curve, often small or poorly fitted; inconclusive = mostly compound fluorescence or quenching in the first reads; inactive = flat curves in all reads;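 also: potency is read from the fitted curve at half-maximal effect; 0% = DMSO wells and 100% = buffer wells lacking importin beta; nearly all actives have a fitted effect of over 15% in size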
Target sequence (Q14974 whole entry, looked up): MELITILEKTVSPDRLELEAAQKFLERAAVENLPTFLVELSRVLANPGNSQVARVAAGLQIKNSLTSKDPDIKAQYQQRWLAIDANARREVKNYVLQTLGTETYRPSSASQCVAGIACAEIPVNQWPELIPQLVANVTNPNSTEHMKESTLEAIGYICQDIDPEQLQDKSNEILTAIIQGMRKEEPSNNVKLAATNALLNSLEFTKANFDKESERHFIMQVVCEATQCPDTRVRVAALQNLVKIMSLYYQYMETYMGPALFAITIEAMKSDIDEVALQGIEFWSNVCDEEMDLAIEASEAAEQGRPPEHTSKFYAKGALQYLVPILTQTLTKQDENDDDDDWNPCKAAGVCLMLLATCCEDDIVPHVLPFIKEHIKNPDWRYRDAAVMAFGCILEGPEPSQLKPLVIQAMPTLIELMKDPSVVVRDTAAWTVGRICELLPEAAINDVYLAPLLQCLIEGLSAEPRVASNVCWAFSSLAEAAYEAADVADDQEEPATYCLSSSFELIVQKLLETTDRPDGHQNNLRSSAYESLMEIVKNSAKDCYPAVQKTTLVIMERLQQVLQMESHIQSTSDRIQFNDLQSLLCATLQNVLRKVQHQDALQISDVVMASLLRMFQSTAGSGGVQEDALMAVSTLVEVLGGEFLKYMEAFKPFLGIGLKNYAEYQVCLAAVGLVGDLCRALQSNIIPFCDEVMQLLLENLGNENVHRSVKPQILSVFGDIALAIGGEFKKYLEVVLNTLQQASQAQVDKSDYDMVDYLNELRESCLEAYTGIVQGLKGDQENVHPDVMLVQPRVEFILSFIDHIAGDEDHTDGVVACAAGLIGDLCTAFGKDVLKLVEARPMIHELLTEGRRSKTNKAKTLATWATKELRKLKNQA
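Inhibition scored from the CFP 486 nm/YFP 530 nm FRET ratio 45 min after adding 0.125 microM importin beta to 50 nM Rango biosensor preincubated 5 min with compound (room temperature, PBS with DTT, Tween-20, BSA). No-importin wells as positive control.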
miR-21 reporter = qHTS Assay for Modulators of miRNAs and/orActivators of miR-21 | HeLa miR-21 FLuc reporter, luciferase, 48 h | Potency, µM (series often up to 38.3 µM), for inactives: top-dose reporter change, positive = more light | 340,000 tested, under 10 active; active = well fitted rising curve with a large enough effect; inconclusive = small, poorly fitted or top-dose-only effect; inactive = no such curve, though single readings can be large or run the other way;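 also: % of control where 0% means no effect; miR-21 action dims this reporter so a rising signal means less miR-21 action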
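Compounds were titrated across several concentrations (up to approximately 40 uM) and incubated 48 hours with HeLa miR-21-FLuc reporter cells (miR-21 target sequence downstream of FLuc, endogenous miR-21). Readout was firefly luciferase luminescence after lytic detection reagent.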
Active calls of the source: *; ? = inconclusive; . = no result given; & = joins results of further samples; [ ] = dose if it differs, or a comment. The list is partial. The share of hits here may be higher or lower than overall.

Start of the data: the first 2 compounds, to show the layout:
SMILES	Rango release inh	GLA inh pH 4.5	Rango complex inh	miR-21 reporter
CCOC(=O)N1CCN(c2nnc(-c3ccc(C)cc3)c3ccccc23)CC1	11%	.	4.4%	20%
CCCc1nnc(SCC(=O)Nc2ccc3c(c2)OCCO3)n1CCOC	2%	.	0.3%	2%

All compounds of this part, from the start:
SMILES	Rango release inh	GLA inh pH 4.5	Rango complex inh	miR-21 reporter
CCOC(=O)N1CCN(c2nnc(-c3ccc(C)cc3)c3ccccc23)CC1	11%	.	4.4%	20%
CCCc1nnc(SCC(=O)Nc2ccc3c(c2)OCCO3)n1CCOC	2%	.	0.3%	2%
COc1ccccc1/C=N/NC(=O)c1ccc(Br)cc1	-4%	2	-0.4%	-2%
COc1ccc(C2(CNC(=O)Cc3ccccc3)CCCC2)cc1OC	-1%	-11	-0.3%	-9%
CS(=O)(=O)NCCSCc1c(F)cccc1Cl	1%	3	-1.4%	-5%
CN(C)C(=S)Nc1ccc2c(c1)OCO2	-8%	-12	3.1%	-6%
Cc1ccc2oc(=O)n(CC(=O)O)c2c1	22%	-13	-3.3%	-3%
Cc1nnc(N/N=C/c2ccco2)n1N	0%	5[21.1 µM]	1.9%	3%
O=C(CCC(=O)N(CC(=O)NC1CCCC1)c1ccccc1F)Nc1nccs1	-4%	.	-3.6%	2%
O=C(CCCCCn1c(=O)[nH]c2ccsc2c1=O)N1CCN(C2CCCCC2)CC1	2%	2	-6.4%	-9%
COC(=O)c1ccc(-n2nnnc2SC)cc1	13%	8	-0.2%	-8%
Cc1cc(OCC(=O)N(C)C2CCCCC2)cc(C)c1Cl	-9%	-2	1.5%	-42%
CNC(=S)NNC(=O)c1cccn(Cc2cccc(C(F)(F)F)c2)c1=O	-5%	.	-1.4%	-6%
Cn1c(CN2CCCC2)nc2cc(NC(=O)COc3ccc(Cl)cc3)ccc21	7%	-5	4.6%	13%
CCN1C(=O)C(=O)N(CC(=O)Nc2ccccc2Oc2ccccc2)C1=O	4%	8	0.7%	-1%
CCOC(=O)C1=C(C)Nc2ccccc2N=C1NC(=O)c1oc2ccccc2c1COC	3%	.	-0.5%	.
CC(C)OCCCN1C(=O)c2ccccc2C1C(=O)NC1CCCCC1 (stereo not given)	-1%	1	3.8%	-1%
COc1ccc(NC(=O)C(C)SCc2ccccc2)cc1 (stereo not given)	-9%	-12	-2.1%	-27%
CCOC(=O)c1c(-c2ccsc2)csc1N	1%	0	0.7%	-3%
COc1cc(O)c(C(CCN2CCN(c3ccccc3)CC2)c2ccc3c(c2)OCO3)c(OC)c1 (stereo not given)	0%	-6	1.5%	-1%
Cc1cc(C)cc(OCC(=O)N2N=C(c3cccnc3)CC2(O)C(F)(F)F)c1 (stereo not given)	33%	-2	2.2%	4%
O=C(O)c1cccc(N2C(=O)CSC2c2c(F)cccc2Cl)c1 (stereo not given)	-3%	-2	-4.9%	-5%
COc1ccc(C(=O)Nc2cccc(NC(=O)c3cccs3)c2)cc1	-14%	.	-1.0%	-11%
O=C(Nc1nnc(SCCN2CCOCC2)s1)C1CC(=O)N(c2ccc(F)cc2)C1 (stereo not given)	10%	.	-3.9%	-3%
O=C(Nc1ccc(Cl)cn1)C1COc2ccccc2O1 (stereo not given)	5%	-4	-2.8%	-23%
CCCC(=O)OCC(=O)Nc1cc(C(C)(C)C)nn1-c1ccccc1	-13%	-2	0.7%	-4%
C=CCOc1ccccc1CNCCNC(=O)c1nonc1N	-11%	12	-3.1%	-2%
CC1CC(C)CN(CCCNC(=O)c2cc3c(=O)[nH]c4ccccc4c3n2C)C1 (stereo not given)	11%	-13	2.7%	-8%
Cc1cccc(Nc2nc(N3CCCCC3)nc(N3CCCCC3)n2)c1	-7%	-1	-4.0%	-3%
CCOC(=O)C1=CN(Cc2cccc(F)c2)S(=O)(=O)NC1c1ccc(F)c(Cl)c1 (stereo not given)	12%	.	-2.7%	.
Cc1ccc(-n2nnc3c(=O)n(CC(=O)NCC4CCCO4)cnc32)cc1 (stereo not given)	1%	3	-1.3%	1%
COc1ccc(-c2csc(NC(=O)C3CSC4(C)CCC(=O)N34)n2)cc1OC (stereo not given)	-18%	.	2.7%	.
CCC1(c2ccccc2)SC(=O)NC1=O (stereo not given)	12%	.	0.0%	.
O=C(c1ccc(S(=O)(=O)N2CCCC2)cc1)N1CCCc2ccccc21	0%	-3	-0.1%	-2%
CCO[C@H]1c2c(ccc3ccc(=O)oc23)OC(C)(C)[C@H]1O	0%	.	0.3%	.
CC12CCC(=O)N1C(C(=O)NNC(=O)COc1cccc(C(F)(F)F)c1)CS2 (stereo not given)	-18%	.	?	.
O=C(OCC(=O)N1CCCCCC1)c1ccc(S(=O)(=O)N2CCOCC2)cc1	4%	4	0.0%	1%
CN(CC(=O)Nc1cccc(F)c1)C(=O)c1cn(-c2ccccc2)nc1-c1ccccc1	6%	.	1.5%	2%
Cc1c(C(=O)N2CCOCC2)c(S(=O)(=O)Nc2ccc(OC(F)(F)F)cc2)c(C)n1C	?	.	-1.1%	0%
CCc1ccccc1NC(=S)N(CCCN1CCOCC1)Cc1cccs1	-1%	4	-0.9%	-8%
CC(C)c1onc(C(=O)N(C)C2CCCCC2)c1[N+](=O)[O-]	-14%	-1	-3.7%	1%
C=CCSc1nnc(-c2ccccc2N=Cc2c(C)[nH]n(-c3ccccc3)c2=O)c(=O)[nH]1	-17%	4	-4.4%	-13%
COc1ccccc1NC(=O)CCN1CCN(c2ccc(Cl)cc2)CC1	6%	.	4.3%	3%
CC(C)(C)OC(=O)N(CCc1ccccc1)Cc1ccc(OCc2cccc(NC(=O)c3ccccc3)c2)cc1	-19%	.	3.9%	.
Fc1ccc(CSc2nsc(SCc3ccc(F)cc3)n2)cc1	-11%	0	3.6%	-1%
COC(=O)CN(C)C(=O)c1ccccc1OC1CCN(S(C)(=O)=O)CC1	-15%	.	-1.2%	1%
CCN1C(=O)[C@H]2[C@H]3CN=C(SCc4ccccc4)N3[C@@](Cc3ccccc3)(C(=O)OC)[C@H]2C1=O	?	.	?	.
COc1ccc(C(=O)N/C(=C/c2cccc3ccccc23)C(=O)NCCc2c[nH]c3ccccc23)cc1OC	-15%	-9	?	7%
CCSc1nc2nc(C)cc(C)n2n1	21%	11	0.4%	-1%
Cc1cccc(NC(=O)CSCC(=O)NNC(=O)c2ccoc2C)c1	-18%	.	1.2%	-1%
CCn1nccc1C(=O)Nc1ccc(C)c(C)c1	-15%	.	2.7%	-59%
CNS(=O)(=O)c1cccc(C(=O)OCC(=O)Nc2cc(F)ccc2F)c1	0%	-4	0.3%	-2%
CCOC(=O)c1nnc2cc(C)nn2c1C	13%	5	0.1%	-1%
O=C1NC2=C(C(=O)CCC2)C(c2ccc(OC(F)F)cc2)N1 (stereo not given)	-7%	.	-2.0%	8%
C/C(CC(=O)Nc1ccc(Cl)cc1Cl)=N\NC(=O)C(=O)NCCO	-11%	-4	-3.8%	-8%
O=C(Cn1nnc(-c2cccc(C(F)(F)F)c2)n1)NC1CCCC1	3%	3	-0.5%	-1%
NC(=O)c1ccsc1NC(=O)c1ccc(S(=O)(=O)N2CCCCC2)cc1	7%	-6	-2.9%	-8%
O=C(CC(SCCO)c1ccc(F)cc1)c1ccco1 (stereo not given)	-17%	-12	-3.3%	15%
CCC1=C(OC(=O)N(CC)CC)N2C(=O)OC(=NCC(=O)OC)[C@]2(Cc2ccccc2)[C@H]2C1=CC[C@H]1C(=O)NC(=O)[C@H]12	?	0&-25	2.2%	0%
CC(C)Oc1ccc(C(=O)Nc2cc(S(=O)(=O)N3CCOCC3)ccc2N2CCOCC2)cc1	-12%	.	0.4%	.
New compounds follow
SMILES	Rango release inh	GLA inh pH 4.5	Rango complex inh	miR-21 reporter
COc1cccc(CN2CCc3ccc(NC(=O)CCc4ccc(C)cc4)cc3C2)c1O	-3%	.	0.1%	3%
Cc1cc(CNC(=O)COc2cc(F)ccc2[N+](=O)[O-])c2ccccc2n1	-4%	-10	0.2%	10%
CCn1c(C)nc2cc(C(=O)NNC(=O)Nc3ccc(Cl)c(Cl)c3)ccc21	.	-4	.	1%
CCC(C(N)=NCCc1ccc(OC)c(OC)c1)c1ccccc1 (stereo not given)	0%	.	?	5%
COc1ccc(CCNC(=S)NCCc2c[nH]c3ccccc23)cc1	6%	-9	-1.3%	9%
Cc1ccc(N(C(=O)Cn2nnc(-c3ccc(F)cc3)n2)C(CC(C)C)C(=O)NCC2CCCO2)cc1 (stereo not given)	-11%	-14	-0.5%	9%
C=CCOc1ccc(CN(C)C(=O)CN2C(=O)c3ccccc3C2=O)cc1	-5%	.	-0.7%	2%
Cc1cccc(N=C(N2CCOCC2)P(=O)(N2CCOCC2)N2CCOCC2)c1	21%	3	2.3%	-4%
O=C(COC(=O)c1n[nH]c(=O)c2ccccc12)NC1CCCCC1	0%	.	6.5%	.
COc1cc(-c2nnc(-c3ccc(S(=O)(=O)c4ccccc4)cc3)o2)cc(OC)c1OC	2%	15	0.2%	-1%
CCN1CCN(S(=O)(=O)c2ccc(OC)c3ccccc23)CC1	1%	.	-1.1%	-11%
Cc1nnc(-c2ccccc2)c[n+]1[O-]	-8%	9	-4.5%	-2%
Cc1cccc(NC(=O)CNc2cc(C)ccc2C)c1	6%	-9	0.3%	-26%
Cc1ccc(CS(=O)(=O)c2ccccc2-c2nnc(-c3ccc(Cl)cc3)o2)cc1	0%	-27	-0.3%	-2%
Cc1cc(C)n2nc(C(=O)Nc3ccc(S(=O)(=O)N4CCCCC4)cc3)nc2n1	-4%	-4	-2.1%	1%
O=C(c1ccc(S(=O)(=O)Nc2ccccc2Cl)cc1)N1CCOCC1	15%	.	-1.8%	.
O=C(Nc1c(Cl)cccc1Cl)C1CCC1	20%	4	1.6%	-1%
Cc1nc(NC(=O)CC(C)C)sc1-c1csc(Nc2ccc(Cl)cc2)n1	-13%	-3	3.1%	18%
CC(C)(C)NS(=O)(=O)c1ccc2nc(NC(=O)Cc3cccs3)sc2c1	-5%	-9	-0.2%	10%
COc1cccc(-c2nn(-c3ccc(C)cc3)cc2C(=O)N2CCc3cc(OC)c(OC)cc3C2)c1	0%	.	-0.2%	.

Some of the entries above, set out differently.
Screens in order – Rango release inh, GLA inh pH 4.5, Rango complex inh, miR-21 reporter
> Cc1cc(C)n2nc(C(=O)Nc3ccc(S(=O)(=O)N4CCCCC4)cc3)nc2n1
 : -4%, -4, -2.1%, 1%
> O=C(c1ccc(S(=O)(=O)Nc2ccccc2Cl)cc1)N1CCOCC1
 : 15%, ., -1.8%, .

Next results follow.
SMILES	Rango release inh	GLA inh pH 4.5	Rango complex inh	miR-21 reporter
Cn1ccnc1C1CCCCN1Cc1nc(-c2ccc3c(c2)OCO3)no1 (stereo not given)	-3%	-3	-1.9%	-1%
CN(CC(=O)Nc1ccc(F)cc1)C(=O)COc1ccc([N+](=O)[O-])cc1Cl	0%	9	3.3%	0%
Cc1ccc(Nc2nc(C)nc3c2oc2ccccc23)cc1	8%	-2	-0.4%	9%
O=C(Nc1nccs1)C1CCN(S(=O)(=O)c2ccc(F)cc2)CC1	8%	.	-1.7%	9%
COc1ccc(/C=C/C(=O)c2ccc([N+](=O)[O-])o2)cc1	0%	.	-2.9%	.
O=C(O)c1cccc(Cn2c(Cl)c(/C=N/NC(=O)c3ccco3)sc2=O)c1	-11%	.	-1.9%	-16%
CC(C)(C)NC(=O)NC(=O)COC(=O)c1cccc(NS(=O)(=O)c2ccc(F)c(F)c2)c1	-8%	-3	-0.1%	-2%
O=C(Cn1cccc1)N1CCN(C(c2ccccc2)c2ccccc2)CC1	1%	-4	-1.2%	-6%
CCOc1ccc(S(=O)(=O)NC(C)C)cc1C(N)=O	0%	2	-0.8%	-1%

Single records, from the list above. Order of screens: Rango release inh, GLA inh pH 4.5, Rango complex inh, miR-21 reporter
Cc1nc(NC(=O)CC(C)C)sc1-c1csc(Nc2ccc(Cl)cc2)n1 as listed: -13%, -3, 3.1%, 18%
Cc1nnc(-c2ccccc2)c[n+]1[O-] as listed: -8%, 9, -4.5%, -2%
